gsp antag = antagonists of gsp mutant (McCune-Albright syndrome). Potency, µM (doses to about 76.9 µM), for inactives: at the top dose activity change, negative = inhibition, most hits filed as inhibitors. actives 0.4% (n = 340,000). gsp-mutant cells, cAMP HTRF, 30 min; control for the full effect not named in the record; active = falling curve of any shape with a large fitted effect; inconclusive = falling curve, mostly with a smaller effect; inactive = flat or rising curve; cell line not stated here;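 note: intracellular cAMP measured with PDE inhibitor Ro 20-1724 present during compound exposure; potency is the fitted concentration of half-maximal effect; % is set by controls: 0 for no effect and ±100 for the full control effect; nearly all actives have a fitted effect of over 65% in size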
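HTRF cAMP read-out (cAMP-d2 plus anti-cAMP antibody-K in lysis buffer, 30 min RT). Before lysis, cells are exposed to compounds with […] for 30 min at 37C in DPBS containing Ca/Mg, BSA and Tween 20.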
gsp ag = agonists of gsp mutant (McCune-Albright syndrome); gsp mutant cells, cAMP HTRF, 30 min; control for the full effect not named in the record; Potency, µM (top dose mostly 76.9 µM), for inactives: at the highest dose activation (cAMP increase), actives largely listed as activators; actives 0.13% (n = 340,000); AID 624287; active = well fitted activation curve with a large enough effect; inconclusive = small, poorly fitted or top-dose-only effect, or another doubt; inactive = no such curve, though single readings can be large or run the other way; cell line not stated here;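 note: phosphodiesterase inhibitor Ro 20-1724 added with compounds to block cAMP breakdown; potency is the fitted concentration of half-maximal effect; nearly all actives have a fitted effect of over 60% in size; about a fifth of the inactives were tested at one dose only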
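Cells stably selected in G418 were plated at 2000/well, grown 16-24 hr, then given compounds in DMSO with the PDE inhibitor […] (300 uM solution added) for 30 min at 37C; cAMP was read by HTRF.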
ClpP mod = qHTS Assay for Activators of ClpP | actives 1.9% (n = 340,000) | Potency, µM (titrated, usually from 57.5 µM), inactives show at the top dose activity change, negative = active | ATP-dependent Clp protease proteolytic subunit (Bacillus subtilis (strain 168)), P80244 | purified B. subtilis ClpP, FRET peptide cleavage, 20 min | AID 651965, 2013; active = well fitted falling curve with a large enough effect; inconclusive = small, poorly fitted or top-dose-only effect; inactive = no such curve, though single readings can be large or run the other way; note: potency is the fitted concentration of half-maximal effect; the source files actives as falling curves though it sought activators and does not explain the sign; nearly all actives have a fitted effect of over 65% in size; many hits overshoot -100%
Target sequence (P80244 whole entry, looked up): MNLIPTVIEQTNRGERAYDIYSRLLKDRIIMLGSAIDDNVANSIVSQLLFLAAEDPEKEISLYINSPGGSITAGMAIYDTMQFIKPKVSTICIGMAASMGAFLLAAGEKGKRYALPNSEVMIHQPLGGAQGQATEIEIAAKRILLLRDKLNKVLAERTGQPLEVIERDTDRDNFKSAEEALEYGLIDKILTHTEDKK
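Purified B. subtilis ClpP, 10 microg/mL final in Tris/HCl pH8 with KCl, BSA, glycerol and Tween-20, cleaved an Abz/nitrotyrosine-quenched decapeptide. Fluorescence (ex 320, em 430) was read at 0 and 20 min at room temperature. Delta was normalized to 5.8 microM ADEP and DMSO/no-enzyme controls.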
TRPML1 ag = activates the human TRPML1 channel. TRPML1-expressing cells, Ca2+ dye fluorescence, FDSS; host cell line not named in the record; reference of the full effect not given here. activation, % (no concentration beside the values). actives 0.12% (n = 410,000); in the data active = activation above about 50%; inconclusive = about 30% to 50%; inactive = below about 30%; note: 0% is about no effect; the text of the record puts the active cut at 80%
Target sequence (Q9GZU1 whole entry, looked up): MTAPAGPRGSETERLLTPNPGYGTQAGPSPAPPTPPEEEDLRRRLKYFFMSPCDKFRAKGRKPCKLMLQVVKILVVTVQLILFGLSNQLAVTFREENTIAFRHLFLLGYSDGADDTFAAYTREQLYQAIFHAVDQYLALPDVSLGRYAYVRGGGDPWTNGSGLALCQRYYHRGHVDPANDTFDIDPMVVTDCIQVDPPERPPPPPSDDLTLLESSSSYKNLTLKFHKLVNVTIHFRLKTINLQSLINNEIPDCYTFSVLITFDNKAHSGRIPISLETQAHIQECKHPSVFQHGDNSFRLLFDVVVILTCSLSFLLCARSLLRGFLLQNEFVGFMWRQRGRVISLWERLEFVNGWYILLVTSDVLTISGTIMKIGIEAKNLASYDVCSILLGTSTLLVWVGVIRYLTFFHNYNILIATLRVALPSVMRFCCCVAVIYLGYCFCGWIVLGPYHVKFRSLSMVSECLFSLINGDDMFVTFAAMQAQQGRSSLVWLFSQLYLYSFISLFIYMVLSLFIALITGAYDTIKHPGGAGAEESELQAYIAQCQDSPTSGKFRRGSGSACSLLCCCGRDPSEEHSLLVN
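Cells: TRPML1-DL, 1X Tet inducer, ~16 h at 37 degrees C/5% CO2. Dye: ABD Ca8 no-wash + quencher, 45-90 min RT. Read: 10 s baseline, compound add, 110 s agonist phase; 54-4 EC80 (4uM final), 110 s antagonist phase.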
TRPML1 inh = inhibitors of human TRPML1 channel | Q9GZU1 | TRPML1-inducible cells, Ca2+ dye fluorescence, FDSS; stronger effect = lower value; inhibition of EC80 agonist-evoked calcium signal | activity change, negative = inhibition, % (no concentration beside the values) | actives 0.02% (n = 390,000) | AID 624415; in the data active means activity change below about -50%; inconclusive means about -30% to -50%; inactive means above about -30%;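 note: stimulus is agonist 54-4 at its EC80 concentration; % is set by controls: 0 for no effect and ±100 for the full control effect; compound concentration not given in the record; the text of the record puts the active cut at -80%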
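Tet-induced TRPML1-DL cells loaded with Ca8 no-wash calcium dye were read kinetically on FDSS. Compound addition was followed by EC80 agonist 54-4 (4 uM final); inhibition was read over 110 s.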
Menin MLL FP FL = menin-MLL binding inhibition, fluorescein peptide | AID 1766 | 290,000 tested, under 10 active | Fluorescence polarization, fluorescein-MLL peptide displacement from menin | FP activity change, % at 61.4 µM; inconclusive = falling polarisation curve, or a change in total fluorescence; inactive = total fluorescence flat and polarisation flat or rising; no compound was filed as active; the % refers to the polarisation; negative = inhibition;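 note: % of control where 0% means no effect; inhibitors lower the polarisation; unlabelled MLL peptide was the positive control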
* hit, by the source's call; ? = inconclusive; / = no result given; [ ] = dose if it differs, or a comment.

SMILES	gsp antag	gsp ag	ClpP mod	TRPML1 ag	TRPML1 inh	Menin MLL FP FL
Cc1cccc(CN2CCN(CC(=O)NCCc3ccc(Cl)cc3)C2=O)c1	/	/	-1.4%	-0.6	28	/
COc1cccc(CCc2nnc(CCC(=O)N(C)C3CC(C)(C)NC(C)(C)C3)o2)c1	16%	?	-0.2%	0.0	-9	/
COc1ccc(/C=N/NC2=NS(=O)(=O)c3ccccc32)cc1OC(C)=O	4%	-1%[15.4 µM]	-1.2%	0.2	16	-4.1
CC(C)Oc1ccc(C(=O)NCc2cccnc2)cc1	1%	-41%[inhibitor]	-0.2%	0.1	-10	6.0
COc1ccc(NC(=O)CN2CCC(C(=O)c3ccc(F)cc3)CC2)c(OC)c1	-13%	1%	/	-0.3	-6	2.6
CCn1c(SCc2ccc(C#N)cc2)nnc1-c1ccc(S(=O)(=O)N2CCCCC2)cc1	?	25%	1.1%	1.1	9	-1.5
CC(C)CN(C(=O)COC(=O)C12CC3CC(CC(C3)C1)C2)c1c(N)n(Cc2ccccc2)c(=O)[nH]c1=O	-11%	18%[15.4 µM]	/	-0.7	18	/
Cc1ccc(C)c(NS(=O)(=O)c2ccc3[nH]c(=O)[nH]c3c2)c1	2%	-21%	-0.9%	-0.4	14	2.4
O=C(Cn1cnc2ccccc21)N/N=C/c1ccccn1	-4%	0%	-1.3%	0.1	8	2.0
COC(=O)[C@H]1C[C@H](OC(=O)NCC2CCCCC2)[C@@]2(O)CN(S(=O)(=O)c3ccc(C)cc3)CC2[C@H]1C(=O)OC (some centres not stated)	/	-37%	-0.4%	-0.6	4	/
COc1ccc(C(=O)c2oc3ccccc3c2NC(=O)c2ccc(F)cc2)cc1	/	/	-7.7%	0.3	33	/
CCOc1ccc(-c2nnn(CC(=O)Nc3ccccc3OC)n2)cc1OCC	5%	-33%[inhibitor]	-5.5%	2.9	11	7.6
CCOC(=O)/C(C#N)=C1/SC(CC)C(=O)N1c1ccc(Br)cc1 (configuration not stated)	-6%	-66%[inhibitor]	0.3%	-0.2	0	2.6
Cc1cc(C)c(C)c(S(=O)(=O)N(C)C2CCN(C)CC2)c1C	18%	-23%	/	-0.3	4	-12
O=C(CSc1nnnn1-c1ccc(C(=O)O)cc1)NC1CCCCC1	4%	19%	/	-0.5	13	0.6
Cc1cc(C)cc(NC(=O)CSc2nc3[nH]c(=O)cc(O)c3s2)c1	-1%	-37%[inhibitor]	/	-0.4	-17	20
O=C(NC1CCCCC1)C(c1ccc(O)c(O)c1)N(C(=O)Cn1nnc2ccccc21)c1cccc(O)c1 (configuration not stated)	-7%	35%[15.4 µM]	/	-0.8	29	-1.9
CC12CCC(C/C1=N/NC(=O)Nc1ccccc1)C2(C)C (configuration not stated)	-6%	-30%	-0.3%	2.1	31	3.0
COc1cc(-c2nc3cccc(C)n3c2Nc2ccc3c(c2)OCCO3)ccc1O	/	/	3.5%	0.6	-4	/
COc1ccccc1-c1c(C)nn2c(N3CCCCCC3)cc(C)nc12	35µM*	1%	-8.2%	-0.5	43	1.0
Cc1ccccc1NC(=O)CCCN1C(=O)C2CC=CCC2C1=O (configuration not stated)	0%	7%	-0.5%	-0.7	1	/
O=S(=O)(c1ccc(-n2cnnn2)cc1)N(C1CCCCC1)C1CCCCC1	-5%	?	2.1%	0.4	5	1.9
O=C(CCNC(=O)c1ccc([N+](=O)[O-])cc1)NCCc1ccc(Cl)cc1	-6%	2%	/	1.3	31	1.6
COc1ccc(OC)c(NC(=O)CN2C(=O)COc3ccc(C)cc32)c1	-4%	1%	0.0%	0.5	0	4.4
Clc1ccccc1Cn1c(-c2cccs2)nc2ccccc21	/	/	3.9%	4.9	34	/

The results go on:
SMILES	gsp antag	gsp ag	ClpP mod	TRPML1 ag	TRPML1 inh	Menin MLL FP FL
CCOC(=O)C1CCCN(C(=O)c2cnn3c(C(F)(F)F)cc(-c4ccccc4)nc23)C1 (configuration not stated)	5%	3%	-1.0%	1.0	18	0.1
Cc1ccnc(NC(=O)CNC(=O)c2ccc3c(c2)OCO3)c1	0%	-14%	-21%	0.6	14	/
O=C(OCC(=O)N1CCCCC1)c1cc(NS(=O)(=O)c2ccc(Cl)c([N+](=O)[O-])c2)ccc1O	3%	-30%[inhibitor]	0.9%	1.0	12	-0.3
COc1ccc(OC)c(S(=O)(=O)N2Cc3ccccc3CC2C(=O)Nc2ccc(C(C)=O)cc2)c1 (configuration not stated)	/	/	-1.9%	1.4	-1	/
COc1ccc(-c2nc(N3CCOCC3)nc3n[nH]c(N)c23)cc1	-34%	17%	-0.8%	-0.1	8	-1.6
COC(=O)c1ccc(CNC(=O)C2CCC(=O)N(CCc3ccccn3)C2)cc1 (configuration not stated)	/	-5%	1.2%	-0.3	1	/
Cn1c(C(=O)N2CCN(c3cccc(C(F)(F)F)c3)CC2)cc2sccc21	1%	2%	-0.6%	0.9	0	-1.7
CCC(Sc1nc2nccnc2c(=O)n1Cc1ccc(OC)cc1)C(=O)NC1CCCCC1 (configuration not stated)	/	/	0.9%	-0.4	10	/
COc1cc(C(=O)Nc2cc(C)ccc2OCc2cc(=O)n3cc(C)sc3n2)cc(OC)c1OC	/	/	?	0.9	-7	/
Cc1cc(C)c2oc(-c3ccc(Cl)c(NC(=O)c4ccc(C#N)cc4F)c3)nc2c1	1%	-1%	-6.6%	0.0	12	0.4
CCOC(=O)C1(C)CCCN1C(=O)c1cc(F)ccc1C (configuration not stated)	/	/	-1.1%	0.0	-6	/
Nc1nc(CN2CCc3ccccc3C2)nc(Nc2ccccc2)n1	12%	2%	-2.9%	-1.1	6	1.3
Nc1ccc(C#Cc2ccc3oc4ccccc4c(=O)c3c2)cc1	6%	4%	0.3%	0.0	-7	/
COCCN(CCOC)c1ncc(Cl)c(C(=O)c2c(C)cc3ccccn23)n1	-23%	-16%	-2.7%	3.3	16	-0.2
CCC(=O)n1nc(-c2ccco2)nc1SCc1ccccc1	15%	-2%	3.9%	-0.1	4	15
O=C(CCl)Nc1ccccc1C(=O)c1ccccc1	-2%	-37%[inhibitor]	-2.7%	0.4	3	-0.1
CCN(C(=O)COC(=O)c1cc(OC)c(OC)cc1[N+](=O)[O-])C1CCS(=O)(=O)C1 (configuration not stated)	13%	-11%[15.4 µM]	/	-1.3	2	3.1
O=C1OC(Nc2cc(Br)cc3cccnc23)c2ccccc21 (configuration not stated)	5%	?	-2.8%	0.8	-8	/
COC(=O)[C@@]1(C)[C@H]2C(=O)N(Cc3ccccc3)C(=O)[C@H]2[C@H]2CN=C(SCc3ccc(C)cc3)N21	1%	/	0.7%	2.4	-3	/
COC(=O)c1cc2nc(-c3ccc(OC)c(OC)c3)cc(C(F)(F)F)n2n1	-5%	19%	3.2µM*	-0.4	2	19
N/C(=N\C(=S)Nc1ccccc1)c1ccccc1	1%	0%	/	-0.3	-2	1.8
O=C(Nc1cccc(S(=O)(=O)NC2=NCCC2)c1)c1ccc(F)cc1F	-3%	-5%[15.4 µM]	/	0.2	72	/
CCN1CCN(c2ccc(S(=O)(=O)N3CCCCC3)cc2NC(=O)/C=C/c2ccc(OC(F)F)cc2)CC1	-11%	-18%	-6.5%	0.1	4	/
O=C(CSc1nnc(CNC(=O)c2c(F)cccc2F)o1)Nc1ccc2c(c1)OCCO2	6%	6%	-1.9%	-0.1	3	0.1
Cc1cccc(NC(=O)Cn2cnc3ccc(S(=O)(=O)N4CCC(C)CC4)cc3c2=O)n1	2%	19%	0.2%	-0.7	12	6.3

Next section, starting with the last 2 of the part before.
SMILES	gsp antag	gsp ag	ClpP mod	TRPML1 ag	TRPML1 inh	Menin MLL FP FL
O=C(CSc1nnc(CNC(=O)c2c(F)cccc2F)o1)Nc1ccc2c(c1)OCCO2	6%	6%	-1.9%	-0.1	3	0.1
Cc1cccc(NC(=O)Cn2cnc3ccc(S(=O)(=O)N4CCC(C)CC4)cc3c2=O)n1	2%	19%	0.2%	-0.7	12	6.3
Fc1cccc(C2CC(c3cccc(Br)c3)Nc3nnnn32)c1 (configuration not stated)	-7%	1%	-1.6%	1.2	45	0.7
Cc1nc(CS(=O)(=O)c2ccccn2)sc1C(=O)NNC(=O)c1ccccc1	7%	-5%[15.4 µM]	1.1%	-0.6	9	-1.3
CNC(=S)N(Cc1ccccc1)Cc1cccnc1	6%	7%[15.4 µM]	-2.0%	-0.2	20	-0.5
CSCCC(NS(=O)(=O)c1ccc2c(c1)oc(=O)n2C)C(=O)N1CCN(c2ccc(F)cc2)CC1 (configuration not stated)	/	/	0.9%	0.6	8	/
C/C(CCC(C)C)=N\NS(=O)(=O)c1ccc(C)c([N+](=O)[O-])c1	4%	-1%	1.0%	0.5	-8	2.4
CCN(CC)S(=O)(=O)c1ccc(N2CCCCC2)c(NC(=O)/C(C#N)=C/c2ccc(OC)cc2)c1	7%	-59%[inhibitor]	-0.9%	-0.2	3	9.3
O=C1c2ccccc2-c2n[nH]c(=O)c3ccc(N4CCCCC4)c1c23	10%	0%[15.4 µM]	/	-0.1	-2	-5.6
CCOC(=O)c1ccccc1NC(=O)COC(=O)CCCOc1ccccc1	4%	?	?	3.1	44	/
O=C(CN1CCN(c2ccccc2F)CC1)c1c[nH]c2ccccc12	9%	4%	-0.6%	-0.5	-8	-0.6
COc1ccc(C(=O)N2CCCC(C(=O)O)C2)c2ccccc12 (configuration not stated)	7%	16%	/	-0.4	8	-3.5
CCCCn1c(N)c(N(CCOC)C(=O)CCNC(=O)c2ccc(Cl)cc2)c(=O)[nH]c1=O	0%	-5%[15.4 µM]	/	1.8	8	/
Cc1ccc(C(C)C)c(OCCSc2nc3ccccc3n2CC(O)CO)c1 (configuration not stated)	/	/	-2.6%	3.0	-12	/
Cc1nc(-c2ccc(S(=O)(=O)N3CCN(c4ccccc4F)CC3)cc2)co1	/	/	-0.9%	1.7	-6	/
COc1cccc(/C=N/n2c(SC)nnc2-c2ccccc2)c1O	5%	25%	-1.1%	1.4	48	?
COc1ccc(CNc2nc3ccccc3n2CCN2CCCCC2)c(OC)c1	3%	-22%	-1.7%	-0.6	15	0.7
Cc1cnnc2c1-c1no[n+]([O-])c1CC2	10%	-31%[inhibitor]	1.1%	-0.5	0	-0.4
CCOc1ccc(CN(C(=O)c2cc3ccccc3oc2=O)C2CC2)cc1	?	-20%	-4.2%	0.8	-2	-0.8
COc1ccccc1OCC(=O)N(Cc1nnc(-c2ccccc2Cl)o1)C1CC1	-2%	26%[15.4 µM]	/	0.9	3	/
CCN1CCN(C(=O)CN(C)S(=O)(=O)c2ccc(Cl)cc2)CC1	8%	22%	-4.4%	0.4	35	0.6
COc1ccc(CNC(=O)/C=C/C(=O)O)cc1	4%	1%	0.6%	0.1	22	2.2
COc1cc(/C=C/C(=O)OCC(=O)N2CCCc3ccccc32)ccc1O	-9%	1%[15.4 µM]	-0.8%	1.2	8	/

Screening data: PubChem BioAssay, National Center for Advancing Translational Sciences (NCATS)
